RECQ1 helicase = qHTS Assay for Inhibitors of RecQ-Like Dna Helicase 1 (RECQ1); ATP-dependent DNA helicase Q1 (Homo sapiens), P46063; RECQ1 DNA unwinding, red fluorescence kinetic read; Potency, µM (titrated, usually from 57.3 µM), for the others: top-dose activity, negative = inhibition, usual class: inhibitors; 240,000 tested, 0.54% active;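 further: plate controls were vehicle for no effect and no enzyme for full effect; nearly all actives have a fitted effect of over 30% in size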
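50 nM RECQ1T1 preincubated 15 min with compound in Tris pH 8.0 buffer with MgCl2, DTT, Tween-20 and 2.5 ug/ml poly(dI-dC); started with 200 nM TAMRA/BHQ-2 forked duplex and 2 mM ATP. Unwinding read as fluorescence (525/598 nm), two reads 2 h apart.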
Tau fibril FP = qHTS for Inhibitors of Tau Fibril Formation, Fluorescence Polarization. Potency, µM (highest dose often 57.7 µM), without a hit: at the highest dose activity, negative = inhibition, actives largely listed as inhibitors. K18 P301L tau heparin fibrillization, Alexa594 FP, 6 h. Microtubule-associated protein tau (Homo sapiens), P10636. 280,000 tested, 0.39% active; further: nearly all actives have a fitted effect of over 55% in size
Target sequence (P10636 561-689 P618L limits assumed): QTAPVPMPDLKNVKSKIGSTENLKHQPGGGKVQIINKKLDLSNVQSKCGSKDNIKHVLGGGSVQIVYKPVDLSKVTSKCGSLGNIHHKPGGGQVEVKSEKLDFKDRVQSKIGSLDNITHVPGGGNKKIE
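Heparin (20 uM) drove fibril formation of recombinant tau K18 P301L, 15 uM unlabeled with 0.24 uM Alexa 594 label, for 6 hr at 37 C in 100 mM sodium acetate pH 7. Fluorescence polarization (555/632 nm) read 1 hr after 30 uM ThT.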
TRb SRC2 PPI = qHTS for Inhibitors of the Interaction of Thyroid Hormone Receptor and Steroid Receptor Coregulator 2; TRbeta-SRC2 peptide binding, fluorescence polarization; receptor liganded with 1 µM T3; 280,000 tested, 0.065% active; AID 1469, 2008; Potency, µM (top dose mostly 106 µM), for the others: at the top dose activity change, negative = inhibition, actives largely listed as inhibitors;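 further: plate controls were bound peptide for no effect and peptide without receptor for full effect; nearly all actives have a fitted effect of over 50% in size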
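Polarization signal, normalized between peptide-alone and full complex controls, measured compound effects on T3-liganded human TRb LBD (0.6 uM) binding 20 nM Texas Red SRC2 peptide after 5 hr.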
Tau ThT inhib = qHTS for Inhibitors of Tau Fibril Formation, Thioflavin T Binding; Potency, µM (series often up to 57.4 µM), for the others: at the highest dose activity, negative = inhibition, most hits filed as inhibitors; Microtubule-associated protein tau (Homo sapiens), P10636; 270,000 tested, 2.1% active; recombinant tau K18 P301L (four-repeat tau fragment), heparin-induced fibrillization, ThT fluorescence; AID 1460, 2008; further: nearly all actives have a fitted effect of over 55% in size
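Heparin-induced fibrillization of the P301L-mutant K18 repeat-domain fragment of human tau was followed by ThT binding in quantitative high-throughput format.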
TR SRC2 fluor cs = Total Fluorescence Counterscreen for Inhibitors of the Interaction of Thyroid Hormone Receptor and Steroid Receptor Coregulator 2; 280,000 tested, 0.29% active; AID 1479, 2009; Potency, µM (doses to about 106 µM), without a hit: at the top dose fluorescence change, negative = quenching; TRb/SRC2 Texas Red total fluorescence interference; active means well fitted curve in either direction with a large enough effect; inconclusive means small, poorly fitted or top-dose-only effect
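Human TRβ ligand-binding domain (0.6 uM) and Texas Red SRC2 peptide (20 nM) in Tris buffer with 1 uM T3 and 5% DMSO were incubated with pinned compound for 5 hr at ambient temperature. Total fluorescence was computed as S + 2P (555/632 nm).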
L3MBTL1 block = qHTS Assay for the Inhibitors of L3MBTL1 | Lethal(3)malignant brain tumor-like protein 1 (Homo sapiens), Q9Y468 | AlphaScreen L3MBTL1–H3K9me1 peptide binding | 230,000 tested, 0.66% active | Potency, µM (series often up to 57.1 µM), without a hit: at the top dose activity, negative = inhibition, actives largely listed as inhibitors; further: nearly all actives have a fitted effect of over 60% in size
Target sequence (Q9Y468 whole entry, looked up): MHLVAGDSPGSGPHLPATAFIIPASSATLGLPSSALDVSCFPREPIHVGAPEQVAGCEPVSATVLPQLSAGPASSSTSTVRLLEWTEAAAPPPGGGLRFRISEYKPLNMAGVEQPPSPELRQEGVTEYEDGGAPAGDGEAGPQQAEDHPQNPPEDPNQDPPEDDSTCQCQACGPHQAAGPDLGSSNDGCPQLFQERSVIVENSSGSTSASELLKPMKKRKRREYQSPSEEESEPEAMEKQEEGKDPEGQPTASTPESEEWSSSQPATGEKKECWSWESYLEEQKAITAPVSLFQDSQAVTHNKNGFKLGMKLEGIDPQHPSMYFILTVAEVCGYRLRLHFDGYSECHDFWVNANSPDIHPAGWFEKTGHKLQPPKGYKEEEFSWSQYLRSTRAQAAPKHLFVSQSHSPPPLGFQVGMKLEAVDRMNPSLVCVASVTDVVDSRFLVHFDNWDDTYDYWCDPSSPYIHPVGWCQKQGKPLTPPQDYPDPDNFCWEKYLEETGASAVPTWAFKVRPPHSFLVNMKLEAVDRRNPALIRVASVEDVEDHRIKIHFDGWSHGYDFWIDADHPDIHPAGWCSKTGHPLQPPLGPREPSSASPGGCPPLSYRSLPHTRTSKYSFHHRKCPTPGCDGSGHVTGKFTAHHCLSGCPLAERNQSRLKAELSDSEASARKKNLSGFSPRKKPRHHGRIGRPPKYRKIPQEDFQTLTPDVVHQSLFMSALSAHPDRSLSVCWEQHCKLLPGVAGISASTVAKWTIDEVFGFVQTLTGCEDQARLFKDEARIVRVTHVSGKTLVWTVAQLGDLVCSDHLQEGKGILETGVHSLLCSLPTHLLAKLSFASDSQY
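Displacement of a biotinylated histone H3(1-15) peptide monomethylated at Lys9 (75 nM) from L3MBTL1 (50 nM) was measured by AlphaScreen after a 30 min room-temperature compound incubation; cefsulodin titration served as intraplate control.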
Numbers without * were called inactive; i = inactive; ? = inconclusive; nt = not tested or not shown; [ ] = remark or other dose. Unless noted, the call rests on the fitted dose curve; in most records, active means well fitted curve in the direction sought with a large enough effect; inconclusive means small, poorly fitted or top-dose-only effect, or another doubt; inactive means no such curve, though single readings can be large; an effect the other way counts as inactive or inconclusive. Unless noted, on the % scale 0 is the no-effect control and ±100 the full control effect; potency means the concentration at half of the fitted maximal effect. Some of the compounds tested; the hit share may differ from the screen's.

No.	SMILES	RECQ1 helicase	Tau fibril FP	TRb SRC2 PPI
1	Cc1cc(C)c(NC(=O)C2CCCN2CCC(C)C)c(C)c1 (stereo unspecified)	i	4%	-9%
2	O=S(=O)(Nc1cccc(C(F)(F)F)c1)c1cnc[nH]1	-9%	-6%	-8%
3	CCc1ccc(S(=O)(=O)Nc2ccc(-c3nc4cccnc4s3)cc2)s1	i	?	-12%
4	CC(C)N1C(=O)CCN(C=O)c2ccccc21	7%	-3%	4%
5	CCCCNC(=O)COC(=O)c1ccc(NS(=O)(=O)c2ccc3c(c2)OCCO3)cc1	i	2%	-2%
6	COC(=O)C1=NN(c2ccc(C)cc2)C2C(=O)N(c3ccccc3OC)C(=O)C12 (stereo unspecified)	-12%	-2%	6%
7	CC(=O)Nc1cccc(-c2nc3ccccc3[nH]2)c1	3%	-1%	-6%
8	Cc1c(/C=N/NC(=O)c2cccnc2)c2ccccn2c1C(=O)c1ccc(F)cc1	-1%	?	4%[53 µM]
9	C=CCn1c(CCNC(=O)c2ccccc2F)nnc1SCC(=O)Nc1nc2ccccc2s1	-9%	6%	-5%
10	CCc1cccc2c(C(=O)COC(=O)C3=NNC(=O)CC3)c[nH]c12	i	-10%	3%
11	O=C(N/N=C/c1ccncc1)c1ccc(NS(=O)(=O)c2cccs2)cc1	4%	3%	-7%
12	CC/C(CC(=O)C(F)(F)F)=N\NC(=O)/C(C#N)=C/N(C)C	-2%	0%	-3%
13	CC1=NN(c2ccccc2)C(=O)C1c1ccccc1 (stereo unspecified)	2%	-6%	-8%
14	O=C1NC2(CCC3(CC2)OCCO3)NN1c1ccccc1	-3%	-1%	2%
15	Cc1nc2cc(F)ccc2n1C1CCN(C(=O)c2ccc(F)cc2F)CC1	-8%	-4%	7%

No.	Tau ThT inhib	TR SRC2 fluor cs	L3MBTL1 block
1	-5%	4%	-6%
2	-11%	0%	nt
3	3%	-6%	16%
4	-7%	-1%	nt
5	-4%	6%	nt
6	nt	-2%	nt
7	-2%	1%	nt
8	?	-1%[53 µM]	8%
9	-9%	1%	nt
10	?	1%	2%
11	2%	1%	-5%
12	-11%	-6%	5%
13	-3%	2%	-2%
14	-3%	-1%	?
15	-10%	-1%	nt

Next section
No.	SMILES	RECQ1 helicase	Tau fibril FP	TRb SRC2 PPI
16	CCC(=O)c1ccc(OCC(=O)N2CCc3cc(OC)c(OC)cc3C2)cc1	2%	6%	-14%
17	COc1cc(OC)c(OC)cc1CNC1CCCCCC1	-4%	-9%	-11%
18	O=C(Nc1ccc2c(c1)Cc1ccccc1-2)c1ccc(Br)o1	-7%	-3%	-14%
19	COc1ccc(CNc2cccc(F)c2)cc1Br	i	1%	-3%
20	COc1ccc(OC)c(CN(CCN2CCOCC2)S(=O)(=O)c2ccc(NC(C)=O)cc2)c1	-3%	-11%	-1%
21	Cc1cccc(COCC(Cc2ccccc2)N2CCN(C(=O)c3cccc(C)c3)CCC2=O)c1 (stereo unspecified)	-2%	-2%	-2%
22	Cc1c(C=O)c2ccccn2c1C(=O)c1ccncc1	i	10%	-4%
23	NC(=O)c1cc(NC(=O)c2ccc(NS(=O)(=O)c3cccs3)cc2)cc(C(N)=O)c1	12%	-4%	0%
24	CCN(CC)S(=O)(=O)N1CCC(C(=O)NCC2COc3ccccc3O2)CC1 (stereo unspecified)	i	6%	1%
25	COc1ccccc1N1CCN(CCOc2c(OC)cccc2OC)CC1	-5%	12%	4%
26	Cc1cc(C)c(NC(=O)C2CCCN2CCO)c(C)c1 (stereo unspecified)	1%	1%	-13%
27	CC(=O)Nc1cccc(/C(C)=N/NC(=O)c2ccc(NS(=O)(=O)c3cccs3)cc2)c1	-2%	0%	9%
28	COc1ccccc1N1C(=O)C2C(C(=O)c3ccccc3)=NN(c3ccc(Br)cc3)C2C1=O (stereo unspecified)	-2%	-5%	5%
29	Cc1c(/C=N/NC(N)=O)c2ccccn2c1C(=O)c1ccncc1	5%	7%	-4%
30	O=C1NC2(CCC3(CC2)OCCO3)NN1c1ccc(Cl)cc1	i	3%	-2%

No.	Tau ThT inhib	TR SRC2 fluor cs	L3MBTL1 block
16	?	2%	-4%
17	11%	-11%	-15%
18	2%	-5%	?
19	?	-1%	nt
20	-9%	-2%	10%
21	?	-5%	-2%
22	-7%	-9%	26%
23	4%	-2%	nt
24	-1%	1%	17%
25	-12%	-3%	nt
26	6%	1%	3%
27	-10%	-1%	7%
28	nt	-2%	nt
29	?	-2%	-13%
30	-2%	-1%	-7%

Some of the entries so far, with two lines to a compound.
Each structure is followed by: RECQ1 helicase	Tau fibril FP	TRb SRC2 PPI	Tau ThT inhib	TR SRC2 fluor cs	L3MBTL1 block
[18] O=C(Nc1ccc2c(c1)Cc1ccccc1-2)c1ccc(Br)o1
  -7%	-3%	-14%	2%	-5%	?
[17] COc1cc(OC)c(OC)cc1CNC1CCCCCC1
  -4%	-9%	-11%	11%	-11%	-15%
[23] NC(=O)c1cc(NC(=O)c2ccc(NS(=O)(=O)c3cccs3)cc2)cc(C(N)=O)c1
  12%	-4%	0%	4%	-2%	nt
[16] CCC(=O)c1ccc(OCC(=O)N2CCc3cc(OC)c(OC)cc3C2)cc1
  2%	6%	-14%	?	2%	-4%

More structures:
No.	SMILES	RECQ1 helicase	Tau fibril FP	TRb SRC2 PPI
31	O=C(NCc1cccs1)c1cccc(S(=O)(=O)N2CCCCC2)c1	-2%	-3%	-8%
32	CC(C)(C)c1cc(NC(=O)C2CCCO2)no1 (stereo unspecified)	-10%	10%	-4%
33	Cc1cccc(CCNc2nc3ccccc3n3nnnc23)c1	-2%	8%	6%
34	CC1CN=C(N(C(=O)Nc2ccccc2)C(C)c2ccccc2)S1 (stereo unspecified)	5%	4%	-3%
35	O=C(CSc1ccc2c(c1)OCCO2)Nc1ccc(Cl)cn1	-5%	-2%	5%
36	Cc1csc(OCc2ccc(C#N)cc2)n1	-4%	0%	-5%
37	CCOC(=O)N/N=C/c1c(C)c(C(=O)c2ccc(F)cc2)n2ccccc12	3%	14%	-1%
38	Cc1cc(C)c(NC(=O)C2CCCN2C(=O)NC2CCCCC2)c(C)c1 (stereo unspecified)	-7%	8%	-23%
39	COc1ccc(-n2c3c(c(=O)[nH]c2=O)C(NC(=O)c2ccncc2)(C(F)(F)F)C(=O)N3)cc1 (stereo unspecified)	-3%	-3%	4%
40	O=C(Nc1ccccc1N1CCCCC1)c1ncoc1-c1cccc(F)c1	10%	?	5%
41	CC1CCN(C(=O)CCNC(=O)Cn2cnc3sc4c(c3c2=O)CCCC4)CC1	-3%	11%	-18%
42	CCc1ccc(C2C(C(=O)O)c3ccccc3C(=O)N2C)cc1 (stereo unspecified)	-10%	1%	-1%
43	CCN(CC)CCNc1nc2nonc2nc1NCCN(CC)CC	i	-4%	3%
44	O=C(c1ccc(Cl)c(Cl)c1)N1CCC(=O)N(C(COCc2cccc(Cl)c2)Cc2ccccc2)CC1 (stereo unspecified)	-19%	10%	-1%
45	CCOc1ccc2c(c1)/C(=C(\C(Cl)=C(Cl)Cl)[N+](=O)[O-])N2	-9%	-1%	-1%

No.	Tau ThT inhib	TR SRC2 fluor cs	L3MBTL1 block
31	-11%	-1%	nt
32	-1%	-5%	1%
33	1%	-3%	12%
34	0%	-3%	-10%
35	-19%	1%	-2%
36	2%	2%	1%
37	?	1%	nt
38	5%	-2%	7%
39	-9%	-1%	nt
40	-4%	-6%	nt
41	-1%	0%	nt
42	0%	-9%	nt
43	14%	-2%	nt
44	-9%	1%	-2%
45	-7%	-6%	nt

The list goes on:
No.	SMILES	RECQ1 helicase	Tau fibril FP	TRb SRC2 PPI
46	Cc1cccc(COC[C@H](Cc2ccccc2)N2CCN(C(=O)c3cccc(C)c3)CCC2=O)c1	i	3%	4%
47	O=C(Nc1ccccc1C(F)(F)F)N1CCC(N2CCCCC2)CC1	-4%	-2%	-8%
48	COc1ccc(S(=O)(=O)N(CCCN2CCOCC2)Cc2ccc(OC)c(OC)c2)cc1	i	7%	-4%
49	Cn1c(SCC(=O)c2ccc3c(c2)OCCO3)nnc1C(F)(F)F	-1%	-9%	3%
50	CN1CCN(C(=O)CNc2ccc(C(F)(F)F)cc2[N+](=O)[O-])CC1	-3%	-5%	-4%
51	Cc1cc(C)c(NC(=O)C2CCCCN2C)c(C)c1 (stereo unspecified)	i	1%	-1%
52	Cc1oc(-c2ccc(Cl)cc2)cc1C(=O)/C(C#N)=C/Nc1cccc(OC(F)(F)F)c1	-5%	-4%	2%
53	Cc1c(C=O)c2ccccn2c1C(=O)c1cccc([N+](=O)[O-])c1	-1%	-5%	-4%
54	O=C1CCC/C(=N/NC(=O)c2ccc(NS(=O)(=O)c3cccs3)cc2)C1	-14%	-5%	-5%
55	Cc1cc(-c2ccccc2)nc(SCc2ccc(C(=O)O)o2)n1	-6%	2%	1%
56	CC(C)(C)c1ccc(C2(C)NC(=O)N(CC(=O)c3ccc[nH]3)C2=O)cc1 (stereo unspecified)	-7%	2%	0%
57	CC(=O)Nc1cc2c(cc1NC(=O)c1cnccn1)OCCO2	-4%	-4%	10%
58	C/C(=N\NC(=O)c1ccc(NS(=O)(=O)c2cccs2)cc1)c1ccccc1	-6%	-3%	2%
59	CC(=O)c1sc2nsc(SCCN3CCOCC3)c2c1N	28%	?	-5%
60	Cc1[nH]n(-c2ccccc2)c(=O)c1-c1ccccc1	-12%	0%	5%
61	CC(C)C(C(=O)OCC(=O)c1ccc2c(c1)NC(=O)CO2)N1C(=O)c2ccccc2C1=O (stereo unspecified)	-2%	-9%	3%
62	CC1CCN(C(=O)CCCNC(=O)Cn2cnc3sc4c(c3c2=O)CCCC4)CC1	-5%	-4%	5%
63	COc1cccc(CNc2nc3ccc(C)cc3n3cnnc23)c1	i	-5%	0%

No.	Tau ThT inhib	TR SRC2 fluor cs	L3MBTL1 block
46	-10%	2%	nt
47	-6%	0%	-5%
48	-2%	-8%	-7%
49	-7%	-1%	-15%
50	-19%	-1%	nt
51	-4%	-4%	nt
52	-16%	0%	-12%
53	-13%	-1%	-2%
54	-14%	-2%	-3%
55	9%	-2%	3%
56	-5%	-6%	-7%
57	-3%	1%	nt
58	2%	-2%	7%
59	?	-2%	-12%
60	-11%	1%	3%
61	-3%	-2%	nt
62	-7%	-1%	nt
63	nt	4%	nt

Screens deposited in PubChem by National Center for Advancing Translational Sciences (NCATS).
